HSD17B inhib = inhibitors of human HSD17B10 dehydrogenase. 75,000 compounds, 7.6% hits. Potency, µM (series often up to 57.1 µM), for the others: top-dose activity change, negative = inhibition, hits mostly inhibitors. Q99714. AID 893. recombinant HSD17B10, NADH fluorescence kinetic; many of its hits are not listed in these tables; active = well fitted inhibition curve with a large enough effect; inconclusive = small, poorly fitted or top-dose-only effect; inactive = no such curve, though single readings can be large or run the other way;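 also: the protocol describes HADH2 (HSD17B10) and not the HSD17B4 of the title; nearly all actives have a fitted effect of over 70% in size; most hits overshoot -100% by far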
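Enzyme plus compound, 15 min room temperature; substrate mix added (NAD+ 1 mM, beta-hydroxybutyryl-CoA 90 uM final); plates read kinetically for NADH fluorescence. HADH2 was His-tagged, E. coli-derived, 20 nM.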
Active calls of the source: *; ? = inconclusive; [ ] = remark or other dose. % is scaled to controls: 0 for no effect and ±100 for the full control effect; potency is read from the fitted curve at half-maximal effect. The list is partial, so the mix of outcomes need not match the whole.

The first 2 compounds, ahead of the listing:
SMILES	HSD17B inhib
CCC(=O)OCC(=O)c1c(N)n(Cc2ccccc2)c(=O)n(C)c1=O	3%
CC(C)=C1SC(N2CCN(Cc3ccccc3)CC2)=NC1=O	4%

Results, from the first entry:
SMILES	HSD17B inhib
CCC(=O)OCC(=O)c1c(N)n(Cc2ccccc2)c(=O)n(C)c1=O	3%
CC(C)=C1SC(N2CCN(Cc3ccccc3)CC2)=NC1=O	4%
CC12CCC3C(CC3(C)C)C(C)(CCC1=O)O2 (stereo not drawn)	5%
O=C(c1ccc2c(c1)C(=O)N(c1ccc(Cl)cc1)C2=O)N1CCN(c2ccccn2)CC1	3%
O=C(CN1C(=O)CCC1=O)Nc1nc(-c2nc3ccccc3s2)cs1	32µM*
Cc1cccc(C)c1NC(=O)C1(N2CCN(C(=O)c3ccco3)CC2)CCCCC1	-7%
COc1ccc(CCN2C(=O)c3cccnc3C2=O)cc1OC	3%
COc1cc(Cl)c(C)cc1NC(=O)CSc1nnc(-c2cccnc2)n1Cc1ccco1	1%
O=C(CCC1COc2ccccc2O1)Nc1ccccn1 (stereo not drawn)	10%
CCOC(=O)C1CCN(C(=O)CCn2c(=O)[nH]c3ccccc3c2=O)CC1	-6%
COC(=O)c1c(NC(C)=O)sc2c1CCCC2	-16%
CCN(CC)Cc1nc2c(c(=O)[nH]1)C1(CCCCC1)Cc1ccccc1-2	12%
COc1cccc(C(=O)OCCN2C(=O)c3ccccc3C2=O)c1OC	27%
COc1ccc(N2CCN(CC(=O)Nc3nnc(-c4ccccc4)s3)CC2)cc1	-7%
O=C(c1cccs1)N1CCN(C2CCCCC2)CC1	3%
COC(=O)[C@H](C)NC(=O)Nc1ccccc1F	1%
COc1ccccc1Nc1nc(N)nc(CN2CCCCCC2)n1	8%
Cc1cc(O)c(C=Nc2cccc(Cl)c2)c(=O)o1	9%
Cn1c(=O)cc(OCC(=O)N2CCCc3ccccc32)c2ccccc21	-13%
O=C(CC(NS(=O)(=O)c1ccc(Cl)cc1)c1ccco1)NCc1cccnc1 (stereo not drawn)	1%
CCOC(=O)c1oc2ccccc2c1CSc1nnc(-c2ccco2)o1	-5%
O=C(NC1CCCC1)c1cccnc1N1CCCCCC1	3%
CC[C@@]1([N+](=O)[O-])C[C@H]2C=C[C@@H]1C2	1%[11.4 µM]
Cc1c(NC(=O)NC(=O)c2ccc(F)cc2)c(=O)n(-c2ccccc2)n1C	-2%
CCOC(=O)c1c(NC(=O)CN2CCOCC2)sc2c1CCCC2=O	-3%
CCOC(=O)Cc1csc(NC(=O)CSc2nnc(C)n2C)n1	11%
c1coc(-c2ncc[nH]2)c1	5%
N#CC1=C(N)OC2=C(C(=O)CCC2)C1c1ccsc1 (stereo not drawn)	1%
Cn1cccc1C(=O)N1CCC2(CCCN(C(=O)Nc3ccccc3)C2)CC1	1%
CCN1CCN(C(=O)C2CCN(C(=O)c3cc4sccc4n3CC)CC2)CC1	3%
CCCNC(=O)C1CC(=O)N(c2ccc(OCC(=O)Nc3cc(C)cc(C)c3)cc2)C1 (stereo not drawn)	-4%
Cc1ccc2nc3c(c(C(=O)O)c2c1)CCC3	9%
c1coc(CNc2c3c(nc4ccccc24)CCC3)c1	-14%
COC(=O)C1=C(C)NC(=O)CC1c1ccc(F)c(Br)c1 (stereo not drawn)	21%
Cc1ccc(C)c(Cn2nnc3c(=O)[nH]c(C4CCCN(C(=O)C5CCCCC5)C4)nc32)c1 (stereo not drawn)	2%
CC(=O)Nc1ccc(OC(=O)c2cccs2)cc1	-9%
O=C1[C@@H]2[C@@H](C(=O)N1c1ccc(OCc3ccccc3)cc1)[C@@H]1c3ccccc3[C@@H]2[n+]2ccccc21	2%[11.4 µM]
O=C(CN1CCCC1)Nc1ccc(NC(=O)Nc2ccccc2Cl)cc1	6%
CCN(CC)CCCN1C(=O)C(=O)/C(=C(/O)c2c(C)nc3ccccn23)C1c1ccc(C)o1 (stereo not drawn)	5%
CC(OC(=O)c1nsc(Cl)c1Cl)C(=O)NCc1cccs1 (stereo not drawn)	4%
O=C(CSc1cc(Cl)ccc1Cl)NCC1CCCO1 (stereo not drawn)	5%
O=C(COC(=O)c1ccccc1)NCC1CCCO1 (stereo not drawn)	1%
COC(=O)CC1C(C)(C)C(OC(C)=O)C2CC3=C4CC(=O)OC(c5ccoc5)[C@]4(C)CCC3[C@@]1(C)C2=O (stereo partly drawn)	-4%
Cc1cc(NC(=O)CSc2nnc(COc3ccccc3)n2Cc2ccco2)no1	9%
CCCc1nc2ccccc2c(C(=O)OC2CCOC2=O)c1CC (stereo not drawn)	5%
CCSc1nnc(-c2cccc(S(=O)(=O)N(C)C)c2)n1-c1cc(OC)ccc1OC	10%
c1ccc([P+](CC[P+](c2ccccc2)(c2ccccc2)c2ccccc2)(c2ccccc2)c2ccccc2)cc1	-2%[11.4 µM]
COC(=O)C1=C(C)N=c2s/c(=C/c3cccs3)c(=O)n2C1c1cccs1 (stereo not drawn)	8%
COc1cccc(C2CC(c3ccccc3C)n3nc(N)nc3N2)c1 (stereo not drawn)	3%
CCc1ccc2oc(=O)cc(CN3CCOCC3)c2c1	?
COC(=O)c1cnn(C(=O)c2cc(OC)ccc2Br)c1N	-8%
O=C(O)CSC12CC3CC(C1)CC(C(=O)O)(C3)C2	4%
COc1ccc(OC)c(C(=O)CSc2nnc(-c3cccs3)n2C)c1	?
OCCN1CCN(Cc2cc(Br)cc(Br)c2O)CC1	-3%
CCCS(=O)(=O)N1CCC(C(=O)NCCN2CCC(Cc3ccccc3)CC2)CC1	5%
COc1ccc(S(=O)(=O)NC2(C(F)(F)F)N=C3SCCN3C2=O)cc1 (stereo not drawn)	-1%
CC(=O)Nc1nc2c(c3c1c(=O)oc1ccccc13)CCCC2	-12%
OCC#CCSc1nnc(-c2ccccc2Br)o1	-14%
CCC/C=C(\CCC)C(NP(=O)(c1ccccc1)c1ccccc1)c1ccc(C(F)(F)F)cc1 (stereo not drawn)	-10%
CO[C@@H]1/C=C\O[C@]2(C)Oc3c(C)c(O)c4c(O)c(cc(O)c4c3C2=O)NC(=O)/C(C)=C\C=C/[C@H](C)[C@@H](O)[C@H](C)[C@H](O)[C@H](C)[C@H](OC(C)=O)[C@@H]1C	-2%[11.4 µM]

The closing 7 records of the section above are carried over, then new ones follow:
SMILES	HSD17B inhib
OCCN1CCN(Cc2cc(Br)cc(Br)c2O)CC1	-3%
CCCS(=O)(=O)N1CCC(C(=O)NCCN2CCC(Cc3ccccc3)CC2)CC1	5%
COc1ccc(S(=O)(=O)NC2(C(F)(F)F)N=C3SCCN3C2=O)cc1 (stereo not drawn)	-1%
CC(=O)Nc1nc2c(c3c1c(=O)oc1ccccc13)CCCC2	-12%
OCC#CCSc1nnc(-c2ccccc2Br)o1	-14%
CCC/C=C(\CCC)C(NP(=O)(c1ccccc1)c1ccccc1)c1ccc(C(F)(F)F)cc1 (stereo not drawn)	-10%
CO[C@@H]1/C=C\O[C@]2(C)Oc3c(C)c(O)c4c(O)c(cc(O)c4c3C2=O)NC(=O)/C(C)=C\C=C/[C@H](C)[C@@H](O)[C@H](C)[C@H](O)[C@H](C)[C@H](OC(C)=O)[C@@H]1C	-2%[11.4 µM]
CCOC(=O)N1CCC(NC(=O)CN2C(=O)COc3ccc(C(C)(C)C)cc32)CC1	2%
CCOc1ccc(OCc2ccc(C(=O)O)o2)cc1	-8%
O=S(=O)(c1ccccc1)N1CCC2(CCN(c3ccncc3)CC2)CC1	3%
O=C(Nc1cccc(Cl)c1)Nc1ccc2c(c1)OCO2	-18%
Cc1ccccc1-n1c(-c2cccnc2)n[nH]c1=S	1%
O=C(COc1ccccc1Cl)N1CCCC1	8%
CCn1c(CNc2ccc(OC)cc2)nnc1SCC(=O)c1ccc(OC)cc1	-17%
CC1(C)CC(=O)C2=C(C1)N(CC1CCCO1)C(=O)C2(NC(=O)c1cccnc1)C(F)(F)F (stereo not drawn)	0%
Oc1c(C(c2cccs2)N2CCN(c3ccc(F)cc3)CC2)sc2ncnn12 (stereo not drawn)	7%
CCOc1ccc(N2C(=O)CC(Sc3ncccn3)C2=O)cc1 (stereo not drawn)	-9%
CSc1nnc(Cc2cc(=O)[nH]c(=O)[nH]2)n1-c1cccc(C)c1	2%
CS(=O)(=O)N(CC(=O)N1CCN(Cc2ccccc2)CC1)Cc1ccccc1	-1%
O=S(=O)(c1ccc(Br)cc1)N1CCn2c(nc3ccccc32)C1	10%
O=C(O)CSc1ncn[nH]1	3%
Cc1ccccc1Cn1c(CN2CCc3ccccc3C2)nc2c1c(=O)n(C)c(=O)n2C	48%[activator]
O=C(NC1CC1)C1C2C3C4CC5C3C5C4C12 (stereo not drawn)	3%
COC(=O)CC(=O)CSc1nc(C)cc(C)c1C#N	25µM*
CSCCC(NC(=O)COc1ccccc1)C(=O)N1CCN(c2ccccc2F)CC1 (stereo not drawn)	7%
Cc1cn(C2OC(COC(=O)c3ccccc3)C(O)C2O)c(=O)[nH]c1=O (stereo not drawn)	6%
COc1ccc(N2CCN(C(=O)C3CCCN(S(=O)(=O)c4cccc5cccnc45)C3)CC2)cc1 (stereo not drawn)	1%

2 entries from above, in CSV form.
molecule,HSD17B inhib
O=C(CSc1cc(Cl)ccc1Cl)NCC1CCCO1 (stereo not drawn),5%
O=C(COC(=O)c1ccccc1)NCC1CCCO1 (stereo not drawn),1%

More results
SMILES	HSD17B inhib
O=C1c2ccccc2C(Nc2ccccc2F)N1c1cccnc1 (stereo not drawn)	2%
Cc1ccc(Cn2nnc3c(=O)[nH]c(C4CCN(C(=O)c5cccs5)CC4)nc32)cc1	-3%
COc1ccc(S(=O)(=O)N(C)CC(=O)N2CCCCCC2)cc1OC	1%
COc1ccc(CCNc2ncnc3c2oc2ccccc23)cc1OC	-3%
Cc1cc(C)cc(NC(=O)c2nnn(Cc3cc(C)ccc3C)c2N)c1	-5%
O=C(NCc1cccnc1)c1cccc(NC(=O)c2ccco2)c1	-12%
CCOc1nc(-c2ccc(OC)cc2)ccc1-c1noc(-c2cccnc2)n1	-16%
CCOc1ccc(-n2c(=O)c3sccc3n(CC(=O)NCc3ccco3)c2=O)cc1	-15%
COc1ccc(Cn2c3nc4ccccc4nc3c3c(=O)n(Cc4ccco4)cnc32)cc1	16µM*
CCn1cc(C(=O)NCC2CCCO2)c(=O)c2cc(S(=O)(=O)N3CCC(C)CC3)ccc21 (stereo not drawn)	-4%
COC(=O)c1cn(C(=O)c2ccco2)c2ccccc12	-7%
C=CCNc1nc2c(c(=O)n(C)c(=O)n2C)n1CCCCCC	3%
O=c1c(O)c(-c2ccc(O)cc2)oc2cc(O)cc(O)c12	-4%
O=c1oc2cc(Br)ccc2n1CSC1=NCCS1	-10%
CCOC(=O)CON1C(=O)C(C)(C)N(OCC(=O)OCC)C(=O)C1(C)C	5%
CC(C)(C)NC(=O)C1CCN(S(=O)(=O)c2ccc(Br)cc2)CC1	16%
Cc1c(-c2nc(N)nc(Nc3ccccc3)n2)oc2ccccc12	25µM*
Nc1nc(NCc2c(F)cccc2Cl)nn1-c1ccccc1	-2%
CC(=O)N1CCN(Cc2nc3cc(NC(=O)C4CCCCC4)ccc3n2C)CC1	15%
CC1=C(C#N)C(Nc2cccc(C)n2)(C(F)(F)F)C(=O)N1 (stereo not drawn)	7%
O=C(NCc1ccc2c(c1)OCO2)c1cc2n(n1)C(C(F)(F)F)CC(c1ccc3c(c1)OCO3)N2 (stereo not drawn)	7%
Oc1ccc(CNCc2ccccc2)c2cccnc12	1%[11.4 µM]
COc1ccc(OC)c(C2C(C(C)=O)=C(O)C(=O)N2CCN2CCOCC2)c1 (stereo not drawn)	-2%
CCc1nnc(NC(=O)CCC(=O)Nc2ccccc2)s1	13%
O=C(CSc1nnnn1-c1ccccc1)Nc1ccc(Cl)cc1	2%
CCOC(=O)N1CCN(S(=O)(=O)c2c(C)cc(C)cc2C)CC1	3%
Cc1ccc(CNC(=O)c2ccccc2NC(=O)CSc2nnnn2C)cc1	2%
O=C(CN(Cc1ccc(F)cc1)S(=O)(=O)c1ccccc1)N1CCCCC1	-7%
O=C(NCCc1ccccc1)C1CCCN(S(=O)(=O)c2cccc3nsnc23)C1 (stereo not drawn)	1%
CCCCN(CC)CCNC(=O)c1cc2c(C)nc3ccccc3c2o1	-29%
COc1ccc(Cl)cc1S(=O)(=O)N1CCN(C(=O)c2cc(OC)c(OC)c(OC)c2)CC1	1%
CSCC[C@H](NC(=O)C1CCN(S(=O)(=O)c2ccc(C)cc2)CC1)C(=O)NCC1CCCO1 (stereo partly drawn)	14%
O=C(NCCc1ccccc1)c1ccc(-n2cnnn2)cc1	6%
O=C(CN1CC(=O)Oc2ccccc21)OCC(=O)c1ccccc1	5%
CSc1nnc(-c2cnccn2)n1CCCN1CCCC1=O	-1%
CC(=O)c1ccc(N2CCN(c3ccc(C(F)(F)F)cn3)CC2)cc1	-4%
CCCCOc1ccc(N(CC(=O)NC2CCCC2)C(=O)CCC(=O)Nc2ccccn2)cc1	3%
Cc1ccc(CNC(=O)c2sccc2-n2cccc2)cc1	-1%
CCOc1ccccc1N1CCN(C(=O)c2cc[n+]([O-])cc2)CC1	3%
c1ccc(CN2CCC3(CC2)SSC2(CCN(Cc4ccccc4)CC2)SS3)cc1	-2%[11.4 µM]
O=C(O)C1CCN(C(=O)COc2ccc3c4c(c(=O)oc3c2)CCC4)CC1	32µM*
CCOC(=O)CSc1nc2ccccc2c(=O)n1Cc1ccco1	-4%
Cc1ccc(C(=O)CC(C(=O)O)n2cccn2)cc1 (stereo not drawn)	-3%
CN1CCN(c2ccc(Cl)cc2NC(=O)c2cccc(S(=O)(=O)N(C)C)c2)CC1	4%
CCc1ccc(C(=O)CC2(O)C(=O)N(CN3CCOCC3)c3ccccc32)cc1 (stereo not drawn)	-1%

Structural class: the entries above with a tert-butyl group.
SMILES	HSD17B inhib
CCOC(=O)N1CCC(NC(=O)CN2C(=O)COc3ccc(C(C)(C)C)cc32)CC1	2%
CC(C)(C)NC(=O)C1CCN(S(=O)(=O)c2ccc(Br)cc2)CC1	16%

Screening data: PubChem, National Center for Advancing Translational Sciences (NCATS)
